Measles inh: inhibitors of measles virus growth in infected cells; AID 745; infected Vero cells, GFP fluorescence, 64 h; stronger effect = lower value; 33,000 compounds, 0.1% hits; z-score (concentration not given with the values);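 active = z-score under -3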;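 note: score is relative to mean and SD of the compound wells of a plate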
Active calls of the source: *.

SMILES	Measles inh
Cc1cccc(Cc2c(C)nc3nc(SCC(=O)NCc4ccccc4)nn3c2C)c1	-0.49
Cc1cccc(CNC(=O)C(=O)Nc2ccccc2C)c1	0.92
CCOc1ccccc1NC(=O)C1CCN(S(=O)(=O)c2ccc(Cl)cc2)CC1	-0.78
Cc1cccc(NC(=O)CSc2nc3ccccc3o2)c1	0.86
CCc1nnc(SCC(=O)Nc2cccc(C(F)(F)F)c2)nc1CC	0.07
CC1=NN(C(=O)c2ccncc2)C(O)(c2cccnc2)C1 (centres undefined)	-0.1
COCCNC(=O)C1c2ccccc2Oc2ccccc21	-0.41
CCC(=O)N1c2ccc(S(=O)(=O)Nc3ccc(CC)cc3)cc2CC1C (centres undefined)	-0.14
COc1cccc2cc(-c3nc(NC(C)=O)sc3C)c(=O)oc12	0.14
Cc1ccc(S(=O)(=O)N2N=C(c3ccccc3)CC2c2ccccc2Cl)cc1 (centres undefined)	0.52
C1=C(c2ccccc2)CCN(c2nc3cccnc3s2)C1	0.27
O=C(Nc1cccnc1)c1ccc(Cl)c([N+](=O)[O-])c1	-0.38
COC(=O)c1sc(N2C(=O)C(=O)/C(=C(/O)c3ccc(Cl)cc3)C2c2cccc(Oc3ccccc3)c2)nc1C (centres undefined)	-1.1
COC(=O)c1c(-c2ccccc2)csc1NC(=O)CSc1nnc2sc3ccccc3n12	1.69
CCCCN(Cc1ccccc1)C(=O)C1CCN(S(=O)(=O)c2cccc3nsnc23)CC1	-0.87
O=C(NCCc1ccccc1F)C1CC(=O)N(c2ccc(Br)cc2)C1 (centres undefined)	0.24
O=[N+]([O-])c1cc2c(cc1C=Nc1ccc3oc(-c4cccc(F)c4)nc3c1)OCO2	-0.61
CCC(=O)Nc1ccc2nc(SCc3c(C)cc(C)c(C(C)=O)c3C)sc2c1	-0.47
CCCCCOC(=O)C1=C(C)NC2=C(C(=O)CCC2)C1c1cc2c(cc1Cl)OCO2 (centres undefined)	-0.39
COc1ccc(C2CC(C(F)(F)F)n3nc(C(=O)NCc4ccccc4)cc3N2)cc1OC (centres undefined)	0.08
CCC(=O)N1CCc2cc(Br)cc(S(=O)(=O)N3CCN(c4ccc(F)cc4)CC3)c21	-0.64
COc1cccc(C2CC(c3ccc(F)cc3)Nc3nnnn32)c1OC (centres undefined)	-0.29
COc1ccc(C2Nc3ccccc3NC3=C2C(=O)CC(c2ccco2)C3)cc1 (centres undefined)	0.79
Cc1ccc(NC(=O)c2ccc3c(=O)n(Cc4ccccc4)c(=S)[nH]c3c2)cc1F	0.73
COc1cccc(-c2cc(C(F)(F)F)nc(-n3nc(C)c(Br)c3C)n2)c1	-0.11
COC(=O)c1c(NC(=O)CCSc2nnc3ccccn23)sc2c1CCC2	-1.37
Cc1noc(C)c1S(=O)(=O)N1CCC(C(=O)N2CCCC(C)C2)CC1 (centres undefined)	0.35
Cc1ccc(NC2OC(CO)C(O)C(O)C2O)c([N+](=O)[O-])c1 (centres undefined)	-0.01
CCCCSc1nc2c(c(=O)n1-c1ccccc1)SCC2	0.34
CC(=O)Nc1ccccc1-c1nc2ccccc2n(C)c1=O	0.21
CCCCNC(=O)CCS(=O)(=O)Cc1ccc(C)cc1	0.97
CCn1c(SCc2cc(=O)n3ccccc3n2)nc2ccsc2c1=O	0.59
O=C(CCN1CCCC1)Nc1ccc(OC(F)(F)Cl)cc1	-0.17
CN(CC(O)Cn1c2ccccc2c2ccccc21)S(C)(=O)=O (centres undefined)	-0.61
O=C(NCCN1CCN(c2ccccc2)CC1)c1ccc(NC(=O)C2CCCO2)cc1 (centres undefined)	0.76
CN1C(=O)NC(c2ccccc2[N+](=O)[O-])C2=C1CC(C)(C)CC2=O (centres undefined)	0.54
Cc1ccc2[nH]c(C)c(CN3CCCCC3C)c(=O)c2c1 (centres undefined)	0.08
Cc1cc(C)c(S(=O)(=O)NCc2ccncc2)c(C)c1	0.29
CN(Cc1ccccc1)C(=O)CCCCCn1c(=S)[nH]c2ccccc2c1=O	0.13
CCOc1ccccc1C1Oc2nc(SC)nnc2-c2ccccc2N1C(=O)CC (centres undefined)	0.74
O=C(CSc1nc2c(c(=O)n1-c1ccc([N+](=O)[O-])cc1)SCC2)NCC1CCCO1 (centres undefined)	-0.04
Cc1nc2ccc(C(=O)NCc3ccccc3)cc2nc1C	1.32
CC(=O)NCc1cc(-c2nn(C)c(=O)c3ccccc23)ccc1C	0.77
Cc1ccc2cc3cc(C(=O)N4CCCCC4C)oc3nc2c1 (centres undefined)	-1.28
c1cn2c(Nc3ccc4c(c3)OCCO4)c(-c3ccc(N4CCOCC4)cc3)nc2cn1	-0.62
COCCNC(=O)c1cnn2c(C)c(Cc3cccc(Br)c3)c(C)nc12	-1.52
O=C(Nc1ccccc1C(=O)N1CCCCC1)c1cccc(S(=O)(=O)N2CCCC2)c1	-0.62
N#Cc1cccc(Nc2c3c(nc4ccccc24)CCCC3)c1	0.1
Cc1ccc(C)c(CSC2=NCCN2C(=O)c2ccc(S(=O)(=O)N(C)C)cc2)c1	-1.38
CCc1ccc(CNC(=O)c2cn(C)c(=O)c3c2c2ccccc2n3C)cc1	1.65
(listing goes on)
SMILES	Measles inh
c1ccc(-c2nnc(CN3CCOCC3)o2)cc1	-0.13
COC(=O)c1c(C)oc2ccc(N(C(=O)c3ccncc3)S(=O)(=O)c3cccc([N+](=O)[O-])c3)cc12	-0.56
O=C(Nc1ccc([N+](=O)[O-])cc1)c1cccc(F)c1	0.02
O=c1c2sccc2nc(SCc2nc3ccccc3[nH]2)n1-c1ccc(Br)cc1	-1.91
Cc1cccc(NC(=O)c2cn(-c3ccc(Cl)cc3)c(=O)c3ccccc23)n1	-0.02
COc1cc(C(=O)NCC(=O)O)cc(OC)c1OC	0.49
CC(=O)Nc1ccccc1C(=O)C(=O)NCc1ccc2c(c1)OCO2	0.93
Cc1nnc(SCc2cccc(C(=O)c3ccccc3)c2)[nH]c1=O	-0.18
O=[N+]([O-])c1ccc(Cl)cc1Sc1nc2ccccc2o1	-0.73
CCc1ccc(C(=O)NC(Cc2c[nH]c3ccccc23)C(=O)O)cc1 (centres undefined)	-1.85

Part of the list above in order of molar mass, highest first.
SMILES	Measles inh
Cc1ccc(C)c(CSC2=NCCN2C(=O)c2ccc(S(=O)(=O)N(C)C)cc2)c1	-1.38
c1cn2c(Nc3ccc4c(c3)OCCO4)c(-c3ccc(N4CCOCC4)cc3)nc2cn1	-0.62
Cc1noc(C)c1S(=O)(=O)N1CCC(C(=O)N2CCCC(C)C2)CC1 (centres undefined)	0.35
COc1cccc2cc(-c3nc(NC(C)=O)sc3C)c(=O)oc12	0.14
N#Cc1cccc(Nc2c3c(nc4ccccc24)CCCC3)c1	0.1

More records.
SMILES	Measles inh
O=C(Nc1cccc(Br)c1)c1ccc2snnc2c1	-0.75
O=C(CSc1nc2sc3c(c2c(=O)[nH]1)CCCC3)NCc1ccccc1	1.97
O=C(CCN1C(=O)C2C3C=CC(CC3)C2C1=O)N1CCN(c2cccc(C(F)(F)F)c2)CC1 (centres undefined)	1.22
CCCCN(CC)C(=O)C1c2cc(OC)c(OC)cc2C(=O)N2CCc3ccccc3C12 (centres undefined)	-1.47
O=C(CN1CCc2ccccc2C1)N1CCCc2c1c(=O)oc1ccc(O)cc21	0.67
O=C(O)c1cccc(-c2cc3ccccc3oc2=O)c1	-0.48
Cc1ccc(C2CC(C(F)(F)F)n3ncc(C(=O)Nc4cccc(Cl)c4)c3N2)cc1 (centres undefined)	-1.55
Cc1cccc(NC(=O)C2C3C=CC4(O3)C2C(=O)N(C2CCC(C)CC2)C4C(=O)NC2CCCC(C)C2C)c1 (centres undefined)	-0.47
CCCCNC(=O)C1CCC(=O)N(c2ccc(OC)cc2)C1c1ccc(F)cc1 (centres undefined)	-0.59
O=C(CSc1nccn1-c1ccc([N+](=O)[O-])cc1)Nc1cc(C(F)(F)F)ccc1Cl	-1.28
CCc1ccccc1NC(=O)c1cc2cc3ccc(OC)cc3nc2s1	0.61
CCC(=O)N1c2ccc(S(=O)(=O)NC3CCCC3)cc2CC1C (centres undefined)	1.38
CC1=Nc2ccc(C)cc2N(Cc2ccccc2)C(=O)C1	1.44
CCCCC1=NN(C(=O)c2ccc([N+](=O)[O-])cc2)C(O)(C(F)(F)F)C1 (centres undefined)	2.88
COc1ccccc1CNC(=O)c1cc(-c2cccnc2)nc2ccccc12	1.75
CCCNC(=O)C1c2ccccc2Oc2ccccc21	-0.88
CC1=C(C(=O)OC2CCCC2)C(c2ccc(Br)s2)NC(=O)N1 (centres undefined)	-0.57
Cc1ccc(C(=O)CC23CC4CC(CC(C4)C2)C3)cc1	-1.27
O=C(Nc1ccc2c(c1)C(=O)c1ccccc1C2=O)c1ccc(Br)o1	0.3
CC1(C)CC(=O)C2=C(C1)Nc1ccccc1NC2c1cccs1 (centres undefined)	1.61
COc1cccc(-n2c(SCC(=O)Nc3ccccc3F)nc3c([nH]c4ccccc43)c2=O)c1	-0.76
CCOC(=O)c1c(NC(=O)CCC(=O)OC)sc2c1CCCC2	-0.14
O=C1C(c2ccccc2F)N(C2CCCC2)C(=O)CN1C1CCCCCC1 (centres undefined)	0.02
O=C(Nc1cccnc1)N1CCCCC1	-0.32
CCCn1c2c(c(O)c(C(=O)Nc3ncccc3C)c1=O)CCCC2	-1.05
CCOC(=O)c1cc[n+](CC(=O)c2cc3ccccc3oc2=O)cc1	0.61
CCOc1ccc(C(=O)Nc2c3c(nn2-c2ccccc2C)CS(=O)(=O)C3)cc1OCC	0.25
CCCCCOC(=O)C1=C(C)NC2=C(C(=O)CCC2)C1c1ccc(OC)c(Br)c1 (centres undefined)	-0.12
Cc1ccccc1C(=O)Nc1sc2c(c1C(=O)N1CCC(C)CC1)CCCC2	0.12
O=c1oc2ccc([N+](=O)[O-])cc2cc1-c1nc2ccccc2s1	1.64
O=C(CSc1nc2ccccc2c(=O)n1CCN1CCOCC1)c1ccc(Cl)cc1	0.73
CCCCC1(O)CCCC1O (centres undefined)	1.05
O=C(NCc1ccccc1Cl)C1CCC(=O)N1CCc1ccccc1 (centres undefined)	1.29
COc1ccc(-c2csc(Nc3ccccc3)n2)cc1	1
COc1ccc(C2CC(C(F)(F)F)n3ncc(C(N)=O)c3N2)cc1 (centres undefined)	0.8
CN(C)c1ccc(NC(=O)CCN2CCN(c3ccc(F)cc3)CC2)cc1	1.07
COCCCn1c(-c2ccco2)nc2ccccc2c1=O	0.29
Cc1cccc(Cc2c(C)nc3c(C(=O)NCCC4=CCCCC4)cnn3c2C)c1	-1.25
CCc1ccccc1NC(=O)c1ccc(F)c(S(=O)(=O)N2CC(C)CC(C)C2)c1 (centres undefined)	-0.37
O=C(CN1C(=O)COc2ccccc21)NCc1cccs1	0.16
COc1ccc(C2C(C(=O)O)CC(=O)N2C2CCCCC2)cc1 (centres undefined)	-0.1
CC(C)c1ccc(NC(=O)C(NC(=O)Cc2cccs2)c2ccccc2)cc1 (centres undefined)	-0.7
O=C(Nc1c2c(nn1-c1ccc(F)cc1)CS(=O)C2)c1ccccc1F (centres undefined)	0.43
Cc1ccc(NC(=O)CSc2nnc3n2CCCCC3)cc1	-1.16
Cc1ccc(C2c3c(n(C)c(=O)n(C)c3=O)N=C3c4ccccc4C(=O)C32)cc1Cl (centres undefined)	1.24
Cc1ccc(NC(=O)N(C)Cc2ccccc2)cc1	0.81
O=C(NC1CCCCC1)c1cccc(-n2c(=S)[nH]c3cc(Cl)ccc3c2=O)c1	0.09
N#Cc1c(-c2ccccc2[N+](=O)[O-])cc(-c2ccccc2)nc1SCC(=O)Nc1ccccc1	-0.22
O=C1C2C3CCC(C3)C2C(=O)N1c1ccc([N+](=O)[O-])cc1 (centres undefined)	0.13
CCOC(=O)c1c(NC(=O)c2ccc(C)cc2)sc2c1CCCC2	-0.31
(list continues)
SMILES	Measles inh
O=c1c2ccccc2[nH]c(=S)n1Cc1cccnc1	0.69
C#CCN1C(=O)C(O)(CC(=O)c2cccc3ccccc23)c2ccccc21 (centres undefined)	0.84
CCOC(=O)c1cc2c(=O)n3ccccc3nc2n(C(C)C)c1=NC(=O)c1c(-c2ccccc2Cl)noc1C	-0.46
Oc1ccc2ccccc2c1CNc1nc(-c2ccccc2)cs1	-0.92
O=C1C(=O)N(c2cccnc2)C(c2ccc(O)cc2)/C1=C(\O)c1ccc(Cl)cc1 (centres undefined)	-0.56
COc1cc(-c2nc3sc4c(c3c(=O)o2)CCC4)cc(OC)c1OC	-0.31
CCCNS(=O)(=O)c1ccc(F)c(C(=O)Nc2ccccc2OC)c1	-1.2
O=C(NCCc1ccccc1)C1CCC(CNS(=O)(=O)c2ccc(Br)s2)CC1 (centres undefined)	-0.25
Cc1ccccc1N(CC(=O)Nc1ccc(S(=O)(=O)N2CCOCC2)cc1)S(=O)(=O)c1ccccc1	0.02
COc1ccc(CNC(=O)c2nn3c(C(F)(F)F)cc(-c4cccs4)nc3c2Cl)cc1	-0.64

Gathered by group, the entries above with a CF3 group
SMILES	Measles inh
CCc1nnc(SCC(=O)Nc2cccc(C(F)(F)F)c2)nc1CC	0.07
COc1ccc(C2CC(C(F)(F)F)n3nc(C(=O)NCc4ccccc4)cc3N2)cc1OC (centres undefined)	0.08
COc1cccc(-c2cc(C(F)(F)F)nc(-n3nc(C)c(Br)c3C)n2)c1	-0.11
O=C(CCN1C(=O)C2C3C=CC(CC3)C2C1=O)N1CCN(c2cccc(C(F)(F)F)c2)CC1 (centres undefined)	1.22
Cc1ccc(C2CC(C(F)(F)F)n3ncc(C(=O)Nc4cccc(Cl)c4)c3N2)cc1 (centres undefined)	-1.55
O=C(CSc1nccn1-c1ccc([N+](=O)[O-])cc1)Nc1cc(C(F)(F)F)ccc1Cl	-1.28
CCCCC1=NN(C(=O)c2ccc([N+](=O)[O-])cc2)C(O)(C(F)(F)F)C1 (centres undefined)	2.88
COc1ccc(C2CC(C(F)(F)F)n3ncc(C(N)=O)c3N2)cc1 (centres undefined)	0.8
COc1ccc(CNC(=O)c2nn3c(C(F)(F)F)cc(-c4cccs4)nc3c2Cl)cc1	-0.64

New compounds follow.
SMILES	Measles inh
CC(C)CCNC(=O)CSc1nc2ccccc2[nH]1	-0.1
O=C(O)C1CSC(c2ccc([N+](=O)[O-])cc2)N1 (centres undefined)	-0.75
Cc1cc(Nc2ncnc3sc4c(c23)CCCC4)ccc1Br	0
O=C(CNS(=O)(=O)c1cccs1)Nc1cccc(F)c1	-0.67

Screening results (PubChem BioAssay)

Only part of the results is shown, so the mix of outcomes need not match the whole.
